Compound activity as filed in PubChem BioAssay.
STK33 kinase inh = human STK33 kinase inhibition; inhibition, % at 10 µM; Q9BYT3; purified STK33, MBP phosphorylation, ADP-Glo luminescence; actives 0.073% (n = 320,000);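 active = inhibition at or above 25%, using the most active replicate where run in duplicate; inactive = inhibition below 25%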
Target sequence (Q9BYT3 whole entry, looked up): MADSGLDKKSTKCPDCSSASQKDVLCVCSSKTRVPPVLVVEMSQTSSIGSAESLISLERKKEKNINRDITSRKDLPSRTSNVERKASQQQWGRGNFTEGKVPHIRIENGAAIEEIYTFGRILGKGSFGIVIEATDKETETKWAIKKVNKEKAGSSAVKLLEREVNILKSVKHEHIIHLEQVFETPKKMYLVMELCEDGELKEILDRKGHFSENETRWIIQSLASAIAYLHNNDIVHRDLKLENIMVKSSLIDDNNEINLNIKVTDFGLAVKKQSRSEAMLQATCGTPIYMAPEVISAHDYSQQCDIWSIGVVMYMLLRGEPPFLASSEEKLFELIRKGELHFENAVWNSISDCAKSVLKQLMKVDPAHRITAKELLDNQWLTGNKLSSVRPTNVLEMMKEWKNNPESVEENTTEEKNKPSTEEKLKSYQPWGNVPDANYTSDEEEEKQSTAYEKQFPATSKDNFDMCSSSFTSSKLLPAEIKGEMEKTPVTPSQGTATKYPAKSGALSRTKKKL
Starred values were filed as active, the others as inactive. Only part of the results is shown; most or all hits stand in other tables.

SMILES	STK33 kinase inh
Fc1cccc(F)c1CN1CCN(c2ncccn2)CC1	0.9
CCOc1ccc(S(=O)(=O)Nc2ccc(C(=O)NN)cc2)cc1	1.1
COc1ccccc1CN1C(=O)C2CC=CCC2C1=O (stereo unspecified)	0.6
O=C(Nc1ccnn1C1CCN(Cc2ccccc2F)CC1)C1CCCC1	-0.7
Cc1nc2ccccc2n1CCc1nc2c3ccccc3nc(SCC#N)n2n1	-0.4
C=CCn1c(=O)c2ccccc2n2c(SCC(N)=O)nnc12	0.0
CSc1ncc(Cl)c(C(=O)Nc2ccc(S(=O)(=O)N3CCOCC3)cc2)n1	-3.8
O=C(O)CC(CP(=O)(c1ccccc1)c1ccccc1)C(=O)O (stereo unspecified)	-1.0
O=C(NC1CCCC1)C(c1ccc(F)cc1)N(C(=O)c1csnn1)C1CCCC1 (stereo unspecified)	-1.2
O=C(CNC(=O)c1nc[nH]c1C(=O)NCC(=O)OCc1ccccc1)OCc1ccccc1	-1.8
COC(=O)c1sccc1NC(=O)NC1CCCCC1	1.9
NC(=S)N=Nc1ccc(NN=C(N)N)cc1	1.3
CCC(=O)Nc1cccc(NC(=O)CSc2nnc(C3CC3)n2C)c1	-1.6
CCCCCCCNC(=O)CN1C(=O)CSc2ccc(S(=O)(=O)N3CCOCC3)cc21	0.4
NS(=O)(=O)c1cccc(NC(=O)COC(=O)C2CCCCC2)c1	-1.9
CCOC(=O)Cc1csc(NC(=O)Nc2cccs2)n1	-1.1
CN=CC1=C(O)CC(C)(C)CC1=O	-0.5
COc1cc(=O)[nH]c(SC(C)C(=O)Nc2cc(C)on2)n1 (stereo unspecified)	-0.4
Cc1oc2c(C)c3oc(=O)c(CCC(=O)N4CCC(C(=O)NCCC(=O)O)(c5ccccc5)CC4)c(C)c3cc2c1C	-1.8
O=C(COC(=O)C1Cc2ccccc2CN1C(=O)c1ccccc1Cl)Nc1ccc(N2CCOCC2)cc1 (stereo unspecified)	-1.0
O=C(CCn1cccc1)Nc1ccc(OC(F)(F)F)cc1	-2.4
CC(CCC(=O)O)C1CCC2C3CCC4C[C@H](O)CCC4(C)C3CC(=O)C12C (stereo partly specified)	-0.2
Cc1ccc(COc2ccccc2C(=S)N2CCCC2)cc1	0.3
CSc1ccc(S(=O)(=O)N2CCC(C(=O)N3CCOCC3)CC2)cc1	1.3
CC(C(=O)O)N1C(=O)C2C3CC(C2C1=O)C1C(c2ccccc2)c2sc(=O)[nH]c2SC31 (stereo unspecified)	-2.1
COc1ccccc1NC(=O)CSc1nnc(NC(=O)C2CC2)s1	-0.3
Cc1cc(F)c(F)c(C(=O)N2CCOCC2)c1Cl	-0.2
COc1ccc(C2C(C(=O)c3sc(C)nc3C)=C(O)C(=O)N2CCN(C)C)cc1 (stereo unspecified)	-0.8
COc1cccc(CN2CCN(C(=O)CCc3nnc(C4CCCCC4)o3)CC2=O)c1	-1.0
COc1ccc(CN(CC(=O)NC2CCCC2)C(=O)CCC(=O)Nc2nc(C)cs2)cc1	-0.9
Cc1cccc(NC(=O)CNC(=O)COc2ccc(C(=O)c3ccc(F)cc3)cc2)c1C	-1.6
O=c1cnnc(Nc2ccc(Cl)c(C(F)(F)F)c2)[nH]1	-0.8
O=C(Nc1cc2c3c(c1)C1CCCC1CN3CC1CCCC21)c1ccc([N+](=O)[O-])cc1 (stereo unspecified)	0.4
Cc1ccc(-c2nc3cccnc3o2)cc1NC(=O)COc1ccc(Cl)cc1C	-3.8
CCC(=O)Nc1c(-c2ccc3ccccc3c2)nc2ccccn12	3.5
NC(=O)c1ccc(NC(=O)COC(=O)CCCc2c[nH]c3ccccc23)cc1	0.0
Cn1c(CSCc2ccc(Cl)c(Cl)c2)n[nH]c1=S	0.3
COc1cc(OC)cc(C(=O)Nc2ccc(S(=O)(=O)N3CCOCC3)cc2)c1	-2.4
Cc1ccc(S(=O)(=O)Nc2ccc3nc(-c4cccn4C)[nH]c3c2)cc1	0.0
O=C(COC(=O)c1cnccn1)c1ccc(Br)cc1	-2.2
COc1ccc(NC(=O)c2cc(S(=O)(=O)N3CCc4ccccc43)cn2C)cc1OC	0.0
Cc1ccc(-c2nc(NC(=O)CSc3nnnn3-c3ccccc3)ns2)cc1	-1.2
Nn1c(Cc2cccc3ccccc23)nnc1SCn1nnc2ccccc2c1=O	0.5
O=C(NS(=O)(=O)Nc1ccc(Cl)cc1)c1c[nH]c2ccccc12	-1.8
CC(C)CC(=O)NC(=S)Nc1ccccn1	0.7
CC(=O)c1cccc(NC(=O)CCN2C(=O)C3C4CCC(C4)C3C2=O)c1 (stereo unspecified)	1.7
CCOC(=O)c1sc(=NC(=O)c2ccccc2)n(C)c1C	-2.2
COc1ccc(NC(=O)CN(C)C(=O)c2csc3c2CCCC3)cc1	1.3
O=C(Nc1cc(Cl)ccc1N1CCOCC1)c1ccc(Br)o1	-1.5
COCCNC(=O)c1cccc(OC2CCN(Cc3ccc(C(=O)OC)cc3)CC2)c1	-0.3
Further results
SMILES	STK33 kinase inh
CN(C)c1cc[n+](CC(=O)Nc2c(Cl)cc(Cl)cc2Cl)cc1	1.4
CCOc1ncnc2c1[nH]c1ccccc12	-1.1
S=C(NCC1CCCO1)N1CCN(c2ccc(Cl)c(Cl)c2)CC1 (stereo unspecified)	-0.9
O=C(c1cccnc1)N1CCN(C/C=C/c2ccccc2)CC1	0.2
COc1ccc(CCNCC(=O)Nc2ccc(OC(F)(F)F)cc2)cc1OC	-0.1
CC(=O)N(c1ccccc1)C1CC(C)N(C(=O)c2ccccc2)c2ccccc21 (stereo unspecified)	0.0
O=C(CCCCO)c1ccc(O)c(Cl)c1	0.9
O=C(CN1C(=O)NC2(CCCCCC2)C1=O)c1ccc(OC(F)F)cc1OC(F)F	-0.2
CCOc1ccc(-n2cnnn2)cc1S(=O)(=O)N1CCC(C)CC1C (stereo unspecified)	-1.0
CCCOc1cccc(C(=O)Nc2cccnc2)c1	0.3
Cc1nc2cc(-n3ccc(=O)cc3)ccc2n1-c1ccccc1	8.4
CSc1nc2cc3c(cc2n1C(=O)c1ccc(C)cc1)OCCO3	-0.1
CCOc1ccc(NC(=O)CN2C(=O)c3ccccc3C2=O)cc1	-1.7
COc1cc(/C=C(\NC(C)=O)C(=O)Nc2cccc(O)c2)ccc1OC(C)=O	-1.8
O=C(c1ccccc1Oc1ccc([N+](=O)[O-])cc1)N1CCOCC1	-2.3
Cc1ccc(S(=O)(=O)N2CCN(C(=O)c3cccs3)CC2)cc1C	1.7
CCOc1ccc(-c2nc(C#N)c(NCc3ccc4c(c3)OCO4)o2)cc1	0.5
Cn1c(=O)c2[nH]c(-c3ccc(S(=O)(=O)O)cc3)nc2n(C)c1=O	0.3
Cn1ncc(S(=O)(=O)Cc2ccccc2)c(Cl)c1=O	0.2
Cc1noc(C)c1C(=O)NCc1cccs1	-1.8
O=C(CCSc1nccn1Cc1ccccc1)N1CCOCC1	1.6
Oc1ccc(N2CCN(Cc3nc4ccccc4[nH]3)CC2)cc1	-1.3
CN(CC(=O)Nc1ccc(Cl)cc1)C(=O)CNC(=O)c1ccc2c(c1)OCO2	-1.7
Cc1nc(NCCc2ccccc2F)c(C#N)c(C)c1[N+](=O)[O-]	-0.4
COC(=O)C(C(=O)Nc1ccccc1C)C1CCCCCC1 (stereo unspecified)	-0.2
Cn1nc(-c2ccc(NCCO)c([N+](=O)[O-])c2)c2ccccc2c1=O	-0.2
CCOc1cccc(=O)c2c(C)n(CC(=O)c3ccccc3)c(C)c12	-0.8
C/C(=N\Nc1ncc(Cl)cc1Cl)c1ccc(S(=O)(=O)NCc2ccco2)cc1	0.1
Cc1ccc(-c2csc(NC(=O)N3CCOCC3)n2)cc1	-1.1
CCS(=O)(=O)c1nc(S(=O)(=O)c2ccc(Cl)cc2)c(NCCOC)s1	-2.4

Structures above that contain a COOH group (4):
SMILES	STK33 kinase inh
O=C(O)CC(CP(=O)(c1ccccc1)c1ccccc1)C(=O)O (stereo unspecified)	-1.0
Cc1oc2c(C)c3oc(=O)c(CCC(=O)N4CCC(C(=O)NCCC(=O)O)(c5ccccc5)CC4)c(C)c3cc2c1C	-1.8
CC(CCC(=O)O)C1CCC2C3CCC4C[C@H](O)CCC4(C)C3CC(=O)C12C (stereo partly specified)	-0.2
CC(C(=O)O)N1C(=O)C2C3CC(C2C1=O)C1C(c2ccccc2)c2sc(=O)[nH]c2SC31 (stereo unspecified)	-2.1

The list continues:
SMILES	STK33 kinase inh
CCN1CCN(C(=O)CCc2nnc(CCCCc3ccccc3)o2)[C@@H](C)C1=O	-1.0
CCOC(=O)c1c(C)c(C(=O)NCC2CCCO2)c(C)n1C (stereo unspecified)	0.3
CCOC(=O)C1CCCN(C(=O)C2CCN(S(=O)(=O)CC)CC2)C1 (stereo unspecified)	-0.6
Cc1cc2c(ccc3c2no[n+]3[O-])nn1	-2.0
CNS(=O)(=O)c1cccc(C(=O)NCC2(N3CCCCC3)CCCCC2)c1	1.7
Clc1cccc(OCCCN2CCCC2)c1Cl	0.8
COc1ccc(Nc2oc(-c3ccc(OC)cc3)nc2C#N)cc1	-1.0
C/C(=C\C(=O)Nc1nccs1)c1ccccc1	-0.8
COC(=O)c1c(NC(=S)Nc2ccc(C(=O)N3CCOCC3)cc2)sc2c1CCC2	0.0
O=C(CCNC(=O)c1ccc([N+](=O)[O-])cc1)NCCCN1CCCC1=O	-0.8

Look-ups from the results shown:
CNS(=O)(=O)c1cccc(C(=O)NCC2(N3CCCCC3)CCCCC2)c1 in STK33 kinase inh = 1.7
CCN1CCN(C(=O)CCc2nnc(CCCCc3ccccc3)o2)[C@@H](C)C1=O in STK33 kinase inh = -1.0
CCOC(=O)C1CCCN(C(=O)C2CCN(S(=O)(=O)CC)CC2)C1 (stereo unspecified) in STK33 kinase inh = -0.6
O=C(CCNC(=O)c1ccc([N+](=O)[O-])cc1)NCCCN1CCCC1=O in STK33 kinase inh = -0.8
CCOC(=O)c1c(C)c(C(=O)NCC2CCCO2)c(C)n1C (stereo unspecified) in STK33 kinase inh = 0.3

New compounds follow:
SMILES	STK33 kinase inh
O=C(/C=C/c1ccc(Cl)cc1Cl)Nc1ccncc1	-3.5
S=c1sc2c(N3CCN(Cc4ccccc4)CC3)ncnc2n1-c1ccccc1	-2.2
Cn1cc(-c2ccccc2)cc(C#N)c1=O	-1.1
Cc1ccccc1OCC(=O)N/N=C/c1cn(C)c2ccccc12	0.8
CC(=O)Nc1ccc(SC(C)C(=O)NC2CCCC2)cc1 (stereo unspecified)	-0.7
COc1ccccc1CNC(=O)CCCc1nnc2n(C)c(=O)c3sccc3n12	-1.4
COc1ccc(-c2cc(=O)c3cc(OC)ccc3o2)cc1	-0.1
COc1ccccc1C(=O)NCCC(=O)N1CCCCCCC1	-0.8
CCCc1cc(=O)[nH]c(SCC(=O)N2CCOCC2)n1	-0.5
COc1cccc(C(=O)N2CCSC2=S)c1	0.1
O=C(c1ccc(Br)o1)N1N=C(c2ccc(Cl)cc2)CC1c1ccco1 (stereo unspecified)	-0.5
Cc1ccc(-n2nc(C)c3c(C)c(CCC(=O)NCCCOC(C)C)c(C)nc32)cc1	-1.1
Cc1nn(CCO)c(N)c1C1(O)C(=O)Nc2c(Cl)cc(Cl)cc21 (stereo unspecified)	-0.7
O=C1C(=C(c2ccccc2)c2ccccc2)Nc2ccccc21	0.3
CCc1ccc(Nc2ncc3c(n2)CC(C)(C)CC3=O)cc1	1.7
CC(C)(C)OC(=O)N[C@@H](Cc1ccccc1)C(=O)NCC1CCC(C(=O)O)CC1 (stereo partly specified)	-0.7
Cc1cc(Oc2ccc(=O)n(C)n2)nc(SCc2ccccc2)n1	-3.1
O=[N+]([O-])c1cccc(-c2n[nH]c(=S)n2-c2ccccc2)c1	0.3
O=C(CCCN1C(=O)/C(=C/c2ccccc2)SC1=S)Nc1ccc(O)cc1	-1.6
Cc1ccc(NNC(=O)c2ccno2)c(C)c1	4.4
CCCn1c(NCc2cccc(OC)c2O)nc2ccccc21	1.2
O=C(CN1CCC(O)(c2ccc3c(c2)OCO3)CC1)OC1CCCCC1	-2.7
COc1ccc(Cl)cc1NC(=O)c1cc(C)no1	-0.5
CC(NC(=O)C1CC=CCC1C(=O)O)C1CC2CCC1C2 (stereo unspecified)	-0.3
CCOc1ccc(C(=O)NC(=S)Nc2ccccn2)cc1[N+](=O)[O-]	-0.7
COc1ccc(-n2c(=S)[nH]c3cc(C(=O)NCCCN4CCCC4=O)ccc3c2=O)cc1	-0.2
CCCn1c(SCC(=O)Nc2ccccc2CC)nnc1C(C)C	-3.0
CC(CC(=O)O)CC(=O)N1CCN(S(=O)(=O)c2cccs2)CC1 (stereo unspecified)	-0.5
CC(CCc1ccccc1)NC(=O)CN1CCc2ccccc2C1 (stereo unspecified)	2.0
CCc1ccc(Nc2ncnc3nc[nH]c23)cc1	4.4
Cc1cccc(N2C(N)=C(C#N)C(C#N)(C#N)C2c2ccccc2)c1 (stereo unspecified)	-1.2
CC1=CS/C(=C(/C#N)C(=O)N2CCOCC2)N1c1ccccc1	-0.5
Cc1ccc(C)c(Cn2nnc(C(=O)Nc3ccc4c(c3)OCCO4)c2N)c1	-1.6
O=[N+]([O-])c1ccc(/C=C/c2ccc3ccccc3n2)cc1	-0.5
CCOC(=O)c1[nH]c2ccc(OC)cc2c1NC(=O)CN1CCc2ccccc2C1	-0.3
Cc1ccccc1CNC(=O)C1CCC(=O)N(CC2CCCCC2)C1 (stereo unspecified)	0.4
CC(C)(C)CC(C)(C)NC1=CC(=O)OC12CCCCC2	-4.4
CC(=O)Nc1ccc(S(=O)(=O)N2CCN(CCN3CCOCC3)CC2)cc1Cl	-0.9
CCC(C)NC(=O)CSc1ncnc2sccc12 (stereo unspecified)	-0.8
Cc1ccc2nc(NCC(=O)O)nc(-c3ccccc3)c2c1	0.5

Some of the entries so far, with each value named:
> O=[N+]([O-])c1ccc(/C=C/c2ccc3ccccc3n2)cc1
  STK33 kinase inh: -0.5

> CCOC(=O)c1[nH]c2ccc(OC)cc2c1NC(=O)CN1CCc2ccccc2C1
  STK33 kinase inh: -0.3

> Cc1ccccc1CNC(=O)C1CCC(=O)N(CC2CCCCC2)C1 (stereo unspecified)
  STK33 kinase inh: 0.4

> CC(C)(C)CC(C)(C)NC1=CC(=O)OC12CCCCC2
  STK33 kinase inh: -4.4

The results go on.
SMILES	STK33 kinase inh
CCCCn1c(N)c(N(CC(C)C)C(=O)COC(=O)Cc2cccc(OC)c2)c(=O)[nH]c1=O	0.3
COc1cccc(CNC(=O)c2cccc(NC3=NC4CS(=O)(=O)CC4S3)c2)c1 (stereo unspecified)	0.8
Cc1c(NS(=O)(=O)c2ccccc2)cc(Cl)c(O)c1C	0.5
O=C(NCc1ccccc1)C(=O)NCC1COc2ccccc2O1 (stereo unspecified)	-1.2
